Source: PubChem BioAssay (ICCB-Longwood Screening Facility, Harvard Medical School)
HCMV UL50-53 inh: disrupts HCMV UL50-UL53 complex binding; HTRF UL50-UL53 interaction, normalized percent inhibition; inhibition, % (no concentration beside the values); 190,000 tested, 0.15% active;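 active = both replicates at 50% or more, plus weaker picks with an unusually low signal ratio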;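 also: stock transfer was 100 nL into about 20 µL; 0% = negative control wells and 100% = wells with untagged competitor protein; inactives centre near -12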
Sa growth inh: inhibitors of Staphylococcus aureus growth at 42 °C. S. aureus RN4220 growth, OD600, 20 h; hits give low values. relative growth, % (concentration not given with the values). 170,000 tested, 0.53% active. AID 720641;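 active = growth at 42 °C up to 50% and 20 or more points under that at 30 °C, or under 10% at both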;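 also: 300 nL library stock went into each well; scaled to the means of positive and negative controls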
GIV Gai3 FP: blocks GIV peptide binding to rat Galpha-i3; P08753; Galpha-i3/FITC-GIV peptide fluorescence polarization, 90 min; hits give low values; scaled: aluminum fluoride 0%, vehicle 100%; percent of control (FP), % (test concentration not listed); 210,000 tested, 0.42% active;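 active = replicate mean at 85% of control or lower, very high polarization wells dropped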;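 also: wells of about 15 µL received 100 nL stock; the first replicate is given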
Target sequence (P08753 whole entry, looked up): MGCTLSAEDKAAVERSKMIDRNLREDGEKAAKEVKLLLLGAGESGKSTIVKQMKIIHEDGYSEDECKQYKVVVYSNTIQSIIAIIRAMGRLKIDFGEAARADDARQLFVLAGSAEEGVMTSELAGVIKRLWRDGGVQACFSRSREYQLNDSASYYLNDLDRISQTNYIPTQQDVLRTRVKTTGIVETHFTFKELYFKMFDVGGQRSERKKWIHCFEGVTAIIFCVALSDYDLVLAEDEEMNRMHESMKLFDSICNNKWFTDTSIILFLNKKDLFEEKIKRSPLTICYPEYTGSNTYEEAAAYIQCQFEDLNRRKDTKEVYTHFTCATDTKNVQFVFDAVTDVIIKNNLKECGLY
Sa growth inh second temp: also measured in Sa growth inh; calls as there; relative growth, %; measured here: growth at 30 °C;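 optical density after 20 h as mean of two plates; 100% = untreated growth and lower means inhibition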
* marks the source's active call; other numbers are inactive results; . = not tested or not shown; & = joins results of further samples. Compounds as they come; about 0.83% have a hit in one of these screens.

Each structure is followed by: HCMV UL50-53 inh, Sa growth inh, Sa growth inh second temp, GIV Gai3 FP
O=C(CCn1c(=O)c2cccn2c2cccnc21)N1CCN(c2ccc(Cl)cc2)CC1
  ., 98, 70, 103
COc1cccc2c1cc1c(=O)n(CC(=O)O)nc(C)n12
  -41, 98, 86, 101
Nc1ccc(Oc2ccc(C(F)(F)F)cc2)nc1
  ., 101, 90, 100
CCc1nnc(NS(=O)(=O)c2ccc(N)cc2)s1
  -4, 9.7*, 15*, .
CC(C)N(C(=O)Cn1nnc2c(cnn2-c2ccccc2)c1=O)C(C)C
  7, 85, 89, 100
CCOC(=O)c1ccc(OC(=O)c2ccc(Cl)cc2Cl)cc1
  -5, 70, 77, 102
c1csc(C2=Nn3c(Cn4nnc5ccccc54)nnc3SC2)c1
  -108, 92, 78, 107
OC(COc1ccc(-c2ccccc2)cc1)CN1CCOCC1 (stereo not given)
  6, 121, 98, .
COc1cccc(C2NC(C(=O)O)C3C(=O)N(c4cccc(C(=O)O)c4)C(=O)C23)c1O (stereo not given)
  ., 89, 93, 110
COc1ccccc1-n1c(SC(C)C(N)=O)nc2ccccc2c1=O (stereo not given)
  -14, 101, 102, .
Cn1c(=O)oc2cc(S(=O)(=O)Nc3ccc(S(N)(=O)=O)cc3)ccc21
  -22, ., ., 99
C=CCn1c(SCc2cc(=O)[nH][nH]2)nc2sc(CC)cc2c1=O
  -2, 106, 61, 102
CC(=O)OC[C@H]1O[C@@H](n2cnc3c(=O)[nH]c(N)nc32)[C@H](OC(C)=O)[C@@H]1OC(C)=O
  0, 92, 94, 106
COc1ccc(S(=O)(=O)N2CCc3ccccc3C2C(=O)O)cc1 (stereo not given)
  0, 90, 106, 110
O=C(CSc1nccn2nc(-c3ccccc3)cc12)Nc1ccc(Br)cc1F
  -15, ., ., 102
Oc1ccc(-c2n[nH]c(C(F)(F)F)c2-c2ccccc2)c(O)c1
  -6, 66, 26, .
COc1cccc2cccc(/C=N/n3cnnc3)c12
  -21, 86, 96, .
Cc1nc2ccccn2c1-c1ccnn1C(=O)c1ccc(Cl)cc1
  -30, 109, 87, 97
COc1ccc2c(c1)CC/C(=C/c1ccco1)C2=O
  ., 114, 101, 108
CN(C)C(CNC(=O)c1ccc2ncsc2c1)c1cccs1 (stereo not given)
  2, 81, 94, .
CCOC(=O)c1[nH]c(C)c(C(=O)NCCc2ccc(S(N)(=O)=O)cc2)c1C
  -21, ., ., 98
O/N=C1/CC(O)(C(F)(F)F)Oc2ccccc21 (stereo not given)
  ., 94, 83, 101
Cc1oc(-c2cccc(C(F)(F)F)c2)cc1CO
  -18, 97, 86, 99
COC(=O)C1=C(C)Nc2ncnn2C1c1ccccn1 (stereo not given)
  -5, ., ., 104
CC(=O)N1N=C(Cn2nc(C)cc2C)OC1(C)c1ccccc1 (stereo not given)
  -9, 96, 94, 108
N#C/C(=C\c1c[nH]c2ccccc12)C(N)=O
  -3, 116, 89, 97
Cc1ccc(-n2c(=O)c3ccc(C(=O)NCc4ccco4)cc3n(Cc3ccccc3F)c2=O)cc1
  ., 103, 70, 95
COc1ccc(-c2noc(CC(=O)N(Cc3ccco3)C3CCCCC3)n2)cc1
  -22, 100, 90, 107
COc1ccc(OC)c(C2C(C(=O)Nc3ccccn3)=C(C)Nc3ncnn32)c1 (stereo not given)
  0, ., ., 111
Cc1cc2ccccc2nc1SCC(N)=O
  -34, 99, 78, 103
CC(C)(C)c1ccc(-c2n[nH]c(S(C)(=O)=O)c2C#N)cc1
  -24, 51, 22, 100
COc1cccc(NC(=O)NCCCn2c(-c3ccncc3)nc3cccnc32)c1
  -7, ., ., 103
O=C1CC(C(=O)Nc2cccc3ccccc23)C2(CCCC2)O1 (stereo not given)
  -12, 106, 92, .
Cc1cc(F)ccc1NC(=O)CCSc1nc(-c2ccco2)cc(C(F)(F)F)n1
  -22, 86, 86, 107
Cc1ccccc1N=C(NN)c1ccccn1
  -34, 109, 92, 95
CC(C)(C)c1ccc(C(=O)CC(C(=O)O)N2CCCCC2)cc1 (stereo not given)
  -15, 99, 62, .
O=C(OCCN1C(=O)c2ccccc2C1=O)c1ccccn1
  -42, 81, 90, .
Nn1cnn2c(SCc3cccc(C(F)(F)F)c3)nnc12
  12, 91, 105, .
Cc1ccc2nc(CSc3nnc(NC(=O)COc4ccccc4)s3)cc(=O)n2c1
  ., 94, 89, 106
CCCCN1C=C(OC(=O)c2ccccc2Br)c2ccccc2S1(=O)=O
  -11, ., ., 94
CCc1ccccc1NC(=O)CSc1ncc2c(n1)-c1ccccc1N(Cc1ccc(C)cc1)S2(=O)=O
  ., 95, 91, 105
Cc1cccc(N=Cc2c(O)[nH]c3ccccc23)c1
  -8, 106, 87, 101
COC(=O)CCC1CCCC/C1=N/O (stereo not given)
  -20, 98, 90, .
O=C(CNC(=S)N(Cc1cccs1)C1CCCC1)NC1CCCc2ccccc21 (stereo not given)
  ., 85, 90, 104
Cc1ccc(S(=O)(=O)c2ccc(C(=O)N3CCN(c4cc(Cl)ccc4C)CC3)cn2)cc1C
  -24, ., ., 100
Cc1cccc(Nc2ccccc2C(=O)NCc2ccco2)c1C
  -24, 87, 63, .
O=C(NCc1ccccc1)C1CCN(c2nc3ncccc3n3cccc23)CC1
  -21, ., ., 111
CN(CCc1noc(COc2ccccc2)n1)C(=O)c1ccccc1F
  -21, ., ., 103
CCC(SC1=Nc2ccccc2C2=NC(C)C(=O)N12)C(=O)Nc1ccc(Cl)cc1 (stereo not given)
  -9, ., ., 107
COc1ccc2c(C)cc(SCc3cn4ccsc4n3)nc2c1
  -22, 69, 56, .
COc1ccc(-c2noc(CN(C(=O)c3cc(OC)c(OC)cc3OC)C(C)C)n2)cc1
  -8, 106, 88, 95
COc1cccc(CC(=O)Nc2ccc(-c3nc4ccccc4s3)cc2Cl)c1
  ., 101, 86, 96
Cc1ccc(C)c(Cn2c(N3CCC(C(=O)NCc4ccco4)CC3)nc3ccccc32)c1
  -6, 83, 61, 103
COc1ccc(N2CCn3c(nc4ccccc43)C2)cc1NC(=O)Nc1ccccc1
  -8, ., ., 108
COc1cc(CC(=O)O)ccc1OCc1ccccc1
  -4, 96, 93, 100
O=c1oc2cc(OCc3ccccc3F)ccc2c2c1CCC2
  -27, 142, 84, .
CCOC(=O)c1ccc(N2C=C(C(=O)OC)C(c3cccc(O)c3)C(C(=O)OC)=C2)cc1
  -25, 96, 98, 102
COC(=O)CSc1nc2sc3c(c2c(=O)n1-c1ccc(OC)cc1)CCC3
  3, ., ., 109
COc1cc(-c2noc(-c3ccc(NC4CCCC4)c([N+](=O)[O-])c3)n2)cc(OC)c1OC
  -16, 105, 86, 102
CCOC(=O)c1c(C)[nH]c(C)c1C(=O)COC(=O)c1ccc(S(=O)(=O)N(CC)CC)cc1
  0, 102, 95, .

In a second layout: entries from further up.
canonical_smiles,HCMV UL50-53 inh,Sa growth inh,Sa growth inh second temp,GIV Gai3 FP
Cc1ccccc1N=C(NN)c1ccccn1,-34,109,92,95
CC(C)(C)c1ccc(C(=O)CC(C(=O)O)N2CCCCC2)cc1 (stereo not given),-15,99,62,.

Following part.
Each structure is followed by: HCMV UL50-53 inh, Sa growth inh, Sa growth inh second temp, GIV Gai3 FP
Cc1ccc2c(Cl)c(C(=O)Nc3cc(-c4ccc(F)cc4)no3)sc2c1
  -3, ., ., 101
Cc1ccccc1NC(=O)c1ccc(F)c(S(=O)(=O)N(C)C2CCCCC2)c1
  ., 94, 95, 111
COc1cccc(NC(=O)c2oc3ccccc3c2NC(=O)c2ccc3c(c2)OCO3)c1
  -20, 98, 90, 106
O=C(Nc1cccc(Br)c1)N1CCC(CN2CCCCC2)CC1
  ., 132, 99, 102
Cc1ccc(CCNC(=O)CN2C(=O)COc3ccc(S(=O)(=O)N4CCC(C)CC4)cc32)cc1
  ., 120, 93, 104
O=C(Cn1nc(-c2ccc(Cl)cc2)c2ccccc2c1=O)NCc1cccnc1
  3, 101, 83, 103
O=c1c2ccccc2n2c(-c3ccc(Cl)cc3)nnc2n1CCc1ccccc1
  59*, 128, 86, 100
O=S1(=O)N=C(N2CCOCC2)c2ccccc21
  -24&-22, 101, 86, 105&101
CCOc1ccccc1/C=N\n1cnnc1
  ., 97, 89, 100
COc1cccc(NC(=O)Cn2c(=O)n(-c3cccc(OC)c3)c(=O)c3sc4ccccc4c32)c1
  14, 90, 95, 96
COc1ccccc1OCC(=O)N(Cc1ccc(N(C)C)cc1)CC1CCCO1 (stereo not given)
  -7, 111, 85, 105
Cc1ccc(OC(C)(C)C(=O)Nc2ccc(Oc3ccc(F)cc3F)nc2)c2c1CCC2
  8, 90, 94, 107
Cc1ccc(O)c(NC(=O)COCc2cc(-c3ccc(F)cc3)on2)c1
  -28, ., ., 98
CN(C)c1ccc(-c2nc3cnccn3c2Nc2cccc(C(=O)O)c2)cc1
  -51, ., ., 107
Cn1c(CN2CCCCC2)c(C#N)c2ccccc21
  -7, 87, 92, .
CC(CC(=O)O)CC(=O)Nc1ccc(C(=O)O)cc1 (stereo not given)
  6, 116, 97, 96
Cc1onc(-c2c(Cl)cccc2Cl)c1NC(=O)N1CCCN2C(=O)c3ccccc3C12 (stereo not given)
  -18, 100, 92, 104
Cc1ccc(CNC(=O)CSc2nc3cnn(C)c3c(=O)n2Cc2ccccc2)cc1
  -25, 96, 94, 102
COc1ccc(-c2nnc3ccc(SCC(=O)N4CCCCC4)nn23)cc1
  ., 111, 93, 98
C=CCNc1nn(-c2nc3ccccc3s2)c2c1CCCC2
  -5, 110, 89, .

Ordered by molecular weight (rising): three of the compounds above
Each structure is followed by: HCMV UL50-53 inh, Sa growth inh, Sa growth inh second temp, GIV Gai3 FP
O=C(Cn1nc(-c2ccc(Cl)cc2)c2ccccc2c1=O)NCc1cccnc1
  3, 101, 83, 103
Cc1ccc(CNC(=O)CSc2nc3cnn(C)c3c(=O)n2Cc2ccccc2)cc1
  -25, 96, 94, 102
Cc1ccc(CCNC(=O)CN2C(=O)COc3ccc(S(=O)(=O)N4CCC(C)CC4)cc32)cc1
  ., 120, 93, 104

The results go on:
Each structure is followed by: HCMV UL50-53 inh, Sa growth inh, Sa growth inh second temp, GIV Gai3 FP
O=C(CCS(=O)(=O)c1cc(Br)cc2c1N(C(=O)C1CC1)CC2)N1CCN(c2ccc(F)cc2)CC1
  -5, 105, 79, 103
COc1ccc(S(=O)(=O)N(CCc2ccccc2)CC(=O)NCc2ccc(C)cc2)cc1
  -57, 94, 84, 107
COC(=O)CN1C(=O)CSc2ccc(S(=O)(=O)Nc3ccc(C)cn3)cc21
  -8, ., ., 112
CCN1CCN(Cc2ccc(NC(=O)Nc3cc(F)ccc3F)cc2)CC1
  -15, 100, 104, 105
O=C(Cc1ccc2c(c1)OCO2)c1ccccc1
  -13, 88, 77, 103
Cc1onc(-c2ccccc2Cl)c1-c1nc(-c2ccc(Br)cc2)no1
  -33, 93, 88, 105
COc1cc(-c2nc3ccccc3c(=O)n2NC(=O)COc2cccc(C)c2)cc(OC)c1OC
  -24, ., ., 104
Cc1cccc(-c2ccc(N3CCCC(C(=O)NC4CCCCC4)C3)nn2)c1 (stereo not given)
  -34, ., ., 102
Cc1cc(Nc2ccc(F)cc2)ncn1
  -6, ., ., 102
Cc1nc(-c2cccs2)sc1-c1ccnn1C(=O)C1CC1
  2, 90, 87, 107
CCCCn1c(SCC(=O)Nc2ccc(OCC)cc2)nc2ccsc2c1=O
  ., 110, 101, 107
COc1cccc(Nc2ncc3c(n2)CCN(Cc2cc(Br)cs2)C3)c1
  -3, ., ., 112
Cc1nn(-c2ccccc2)c(C)c1C=NN1CCN(Cc2ccccc2)CC1
  -7&-19, ., ., 105
CCc1ccc(OCC(=O)Nc2ccc3oc(-c4ccc(OC)cc4)nc3c2)cc1
  -24, 111, 92, 96
CCc1nc2ccc(C(=O)N3CCN(c4cc(Cl)ccc4C)CC3)cc2nc1CC
  ., 110, 90, 103
CCc1ccc(CNC(=O)C2CCN(S(=O)(=O)N3CCCC3)CC2)cc1
  -25, 106, 84, 105
CCNc1nc(NC(C)C)nc(OCCNS(=O)(=O)c2cc(C)ccc2C)n1
  -5, ., ., 103
CC(C)(C)OC(=O)N1CCN(C2CC(=O)N(CCc3ccccc3)C2=O)CC1 (stereo not given)
  6, 85, 102, 102
COc1ccc(OCCC(=O)NN)cc1
  -22, 92, 85, 101
CCN(Cc1ccccc1)C(=O)CSc1nncn1C
  4, 88, 96, .
Cc1[nH]c(C(=O)N2CCCC(C(=O)NCC3CCCO3)C2)c(C)c1C(=O)OC(C)C (stereo not given)
  -26, ., ., 92
O=C(CON1C(=O)c2ccccc2C1=O)c1ccc(O)cc1O
  -45, 101, 88, 101
CC1=C(C(=O)OCCOC(C)C)C(c2ccccc2OCc2ccccc2)NC(=O)N1 (stereo not given)
  -18, ., ., 98
Cc1ccc(Cl)cc1N1C(=O)CC(N2CCC(C(N)=O)CC2)C1=O (stereo not given)
  9, 95, 92, 103
O=c1[nH]c2cc(C(F)(F)F)cc(Br)c2[nH]c1=O
  -8, 95, 66, 96
Cc1ccccc1S(=O)(=O)N1CCCN(c2nc3cc(Cl)ccc3n3cccc23)CC1
  -38, ., ., 104
CCOc1cc(C2C3=C(CC(c4ccccc4)CC3=O)Nc3onc(C)c32)ccc1OC (stereo not given)
  -6, ., ., 100
O=C(O)CSCC(=O)Nc1ccc(Cl)cc1Cl
  -16, ., ., 103
Cc1ccc2oc(-c3cccc(NC(=O)c4cccc5c(Cl)cccc45)c3)nc2c1
  -12, 112, 91, 106
CCCCC(C)C(N)=O (stereo not given)
  -7, 99, 51, 98
N#CCN(CC#N)C(=O)c1ccc(C(=O)N(CC#N)CC#N)cc1
  ., 116, 87, 97
